T cruzi repl: T. cruzi replication inhibition; T. cruzi beta-gal in NIH3T3, luminescence, 90 h; 300,000 tested, 1.4% active; inhibition, % (concentration not given with the values);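 active means mean inhibition across valid replicates above about 55%, limit read from the data; inconclusive means mean below that limit but half or more replicates reach it; inactive means mean below it, under half of replicates reach it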;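 further: signal also drops with host cell toxicity which is not excluded here; 0% = plate median of DMSO wells and 100% = zero luminescence signal; higher percent means less beta-gal luminescence so fewer parasites; stock transfer was 50 nL into about 50 µL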
Beta apoptosis: beta cell apoptosis inhibition; protection from apoptosis, % (no concentration beside the values); AID 435005; 300,000 tested, 0.8% active; INS-1E cytokine-induced death, ATP luminescence, 48 h; percent of positive-control rescue, neutral wells zero;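 active means all replicates at 75% or more, or half of them and the mean; inconclusive means half reach 75% but not the mean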;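 further: 0% = cytokine-treated negative control wells and 100% = positive control rescue; higher means more ATP so stronger rescue from cytokine killing; wells of about 40 µL received 100 nL stock; the first replicate is given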
Ecoli rRNA inh: selective bacterial rRNA inhibition in E. coli | E. coli WT GFP vs humanized-ribosome RFP mutants, fluorescence, 24 h; active compounds read low; DMSO median 0, no signal -100 | GFP signal change (wild-type ribosome), % (no concentration beside the values) | 350,000 tested, 1.6% active;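 active means significant combined selectivity score with lowered wild-type GFP, culture density cut under 30%, mutant RFP and density less affected; inactive means any of these conditions unmet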; further: one replicate is shown; some compounds called inactive have numbers as strong as hits
FGF22 binding: FGF22 (human) thermal shift binding; recombinant FGF22 thermal shift, SYPRO orange fluorescence; percent of sucrose octasulfate shift, DMSO zero; Q9HCT0; 340,000 tested, 1.5% active; calls only at 9.99 µM; AID 651658;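 active means melting point raised past a set limit in the mean and every replicate; inconclusive means no clear call; three in four hits are not shown here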
Target sequence (Q9HCT0 whole entry, looked up): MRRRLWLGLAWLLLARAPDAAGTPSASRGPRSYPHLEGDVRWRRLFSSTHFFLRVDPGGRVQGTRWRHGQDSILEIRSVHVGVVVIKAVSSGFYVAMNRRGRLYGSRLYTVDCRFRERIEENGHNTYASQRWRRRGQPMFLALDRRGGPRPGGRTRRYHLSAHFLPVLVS
ALR inh: human ALR oxidase inhibition via reduced H2O2; P55789; purified ALR, DTT oxidation, H2O2 HRP-luminol luminescence; inhibition, % (test concentration not listed); 290,000 tested, 3.8% active; AID 485317;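 active means mean and each replicate at 75% or more; inconclusive means only one of the two met; inactive means neither met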;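 further: stock transfer was 7.5 nL into about 7.5 µL; 0% = neutral wells and 100% = wells with inactivated enzyme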
Target sequence (P55789 whole entry, looked up): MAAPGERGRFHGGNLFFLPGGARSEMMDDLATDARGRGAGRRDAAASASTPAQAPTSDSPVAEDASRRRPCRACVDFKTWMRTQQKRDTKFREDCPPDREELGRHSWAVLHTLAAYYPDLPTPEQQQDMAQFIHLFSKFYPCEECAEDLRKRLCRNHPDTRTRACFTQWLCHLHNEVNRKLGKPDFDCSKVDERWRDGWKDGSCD
AF4-AF9 inh: MLL-AF4/AF9 protein interaction inhibition. P42568. AlphaScreen, biotin-AF4 peptide binding to FLAG-AF9. inhibition, % at 10 µM. 350,000 tested, 0.47% active;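 active means every replicate reaching a set inhibition limit, whatever the replicate mean, cut at about 25% in these data; inconclusive means mean inhibition reaches that limit but some replicates miss it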;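 further: 0% = plate neutral control median and 100% = total signal loss; the record names both 10 and 1 µM as test concentration; the first replicate is given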
Target sequence (P42568 whole entry, looked up): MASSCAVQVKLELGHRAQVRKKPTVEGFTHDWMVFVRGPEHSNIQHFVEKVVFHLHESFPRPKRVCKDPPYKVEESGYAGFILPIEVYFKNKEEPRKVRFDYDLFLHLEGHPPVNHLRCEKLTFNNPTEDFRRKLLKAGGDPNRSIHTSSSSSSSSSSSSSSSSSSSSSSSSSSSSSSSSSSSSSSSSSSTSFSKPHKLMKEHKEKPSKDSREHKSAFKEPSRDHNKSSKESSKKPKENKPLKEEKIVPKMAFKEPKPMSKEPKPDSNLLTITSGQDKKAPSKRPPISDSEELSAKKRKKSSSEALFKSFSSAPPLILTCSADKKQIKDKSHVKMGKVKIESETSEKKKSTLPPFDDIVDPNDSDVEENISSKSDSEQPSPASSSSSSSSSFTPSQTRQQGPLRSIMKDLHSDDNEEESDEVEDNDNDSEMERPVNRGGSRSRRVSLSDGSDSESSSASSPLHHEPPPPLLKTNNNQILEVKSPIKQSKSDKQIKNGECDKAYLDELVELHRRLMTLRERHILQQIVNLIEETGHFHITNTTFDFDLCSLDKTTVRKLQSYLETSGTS
Calb FLC: affects C. albicans growth with fluconazole; C. albicans CaCi-2 (fluconazole-resistant clinical isolate) + fluconazole, Alamar Blue growth, 48 h; growth inhibition, % (concentration not given with the values); AID 1979; 300,000 tested, 0.57% active;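 active means most replicates above 75%; inconclusive means exactly half above 75%; inactive means most below 75%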;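 further: all wells also contain fluconazole at 8 µg/ml as a sub-toxic cotreatment; 0% = median of DMSO wells and 100% = median of geldanamycin control wells; wells of about 8 µL received 7.5 nL stock; the first replicate is given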
RanGTP-Imp inh: inhibitors of RanGTP-importin-beta interaction, primary screen, biochemical, FRET, CFP-Ran, YFP-importin-beta, homogeneous; cell-free CFP-Ran/YFP-importin-beta FRET ratio; 300,000 tested, 1.1% active; inhibition, % (no concentration beside the values);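 active means most replicates above 15%; inconclusive means exactly half above 15%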;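 further: 0% = DMSO wells and 100% = Ran loaded with GDP instead of GTP; wells of about 40 µL received 100 nL stock; the first replicate is given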
Ecoli rRNA inh OD600: further read-out of Ecoli rRNA inh, marked with its call; OD600 change, %; measured here: OD600 growth;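 optical density of the mix in the first replicate; 0 = DMSO median and -100 = no signal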
Ecoli rRNA inh RFP: second read-out of Ecoli rRNA inh, no call of its own (marks repeat the call); RFP signal change, %; measured here: RFP humanized mutant strains;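 first replicate; 0 = DMSO median and -100 = no signal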
Numbers without * were called inactive; i = inactive; ? = inconclusive; . = not tested or not shown. This is a subset. The share of hits here may be higher or lower than overall.

SMILES | T cruzi repl | Beta apoptosis | Ecoli rRNA inh | Ecoli rRNA inh OD600 | Ecoli rRNA inh RFP | FGF22 binding | ALR inh | AF4-AF9 inh | Calb FLC | RanGTP-Imp inh
Cc1cc(OC(C)C(=O)Nc2ccncc2)ccc1Cl (stereo not drawn) | -0.3 | -6.0 | -19.6 | -21.2 | -14.7 | i | -13.3 | 0.7 | 16.5 | -0.1
CCC(c1nnc(SCC(=O)Nc2cccnc2Cl)n1-c1ccccc1)N(C)C (stereo not drawn) | -9.8 | -5.5 | 14.9 | 12.6 | -3.2 | i | 1.7 | -3.1 | 1.7 | 1.4
COc1ccc(N/C=C2\CCc3ccccc3C2=O)cc1 | -3.3 | 19.4 | -35.5 | -65.8 | 4.8 | i | 41.5 | 6.2 | 12.1 | -5.3
COCCn1nnnc1C(C(C)C)N1CCSCC1 (stereo not drawn) | -15.1 | -4.0 | 20.3 | 14.3 | 1.2 | i | 0.0 | 1.0 | -21.7 | 8.5
C=CCn1c(SCC(=O)Nc2ccc(OC)cc2)nc2c([nH]c3ccccc32)c1=O | -4.5 | -11.0 | 3.2 | 17.8 | -0.9 | i | -1.4 | -5.2 | . | .
CCc1cc(=O)oc2c(C)c(O[C@@H]3O[C@H](CO)[C@@H](O)[C@H](O)[C@H]3O)ccc12 | -9.8 | -6.4 | 19.6 | 2.8 | 1.0 | i | -7.4 | -1.7 | -0.3 | -2.9
CN(CCOc1ccc(F)cc1)Cc1ccccc1 | -2.2 | . | 17.8 | 13.3 | -2.3 | i | 2.5 | -9.5 | 4.8 | -3.9
CCOc1ccccc1-n1c(CN2CCN(C(=O)c3ccco3)CC2)nc2ccccc2c1=O | -1.7 | 4.0 | . | . | . | . | 2.1 | . | -10.6 | 0.5
Cc1ccc(NC(=O)Nc2cnc3ccccc3c2)cc1 | -1.1 | 9.8 | 1.5 | 8.3 | -5.7 | i | . | -0.9 | 6.3 | 3.9
COC(=O)C1(S(=O)(=O)c2cc(Br)cc3c2N(C(C)=O)CC3)CC1 | -16.8 | -6.6 | . | . | . | . | -13.2 | . | 5.7 | 1.0
Cc1cccc(N2CCN(C(=O)CCNS(=O)(=O)c3cccs3)CC2C)c1 (stereo not drawn) | -10.6 | 8.0 | -2.0 | -0.2 | -0.9 | i | 92.5* | 3.9 | -1.9 | -2.9
Cc1ccc2cc(C)c(Sc3nnnn3-c3ccccc3)nc2c1 | 11.1 | -3.2 | 13.3 | 17.3 | 0.3 | i | -20.3 | -3.5 | 46.3 | 4.2
CC1=NN(/C(=N\c2nnc(C)s2)Nc2ccc(C)cc2)[C@H](c2ccc(C)cc2)S1 | 6.8 | -1.5 | . | . | . | . | . | . | 23.7 | -3.3
Cn1c(-c2ccccc2)cnc1SCC(=O)N1CCCCC1 | -21.7 | -0.6 | . | . | . | . | 99.9* | . | 2.1 | -0.8
Cc1ccc(/C=N/Nc2ccc(F)cc2F)s1 | 3.4 | 3.1 | 9.2 | 9.3 | 0.1 | i | . | 3.6 | -11.3 | -0.8
O=C(COc1ccc(S(=O)(=O)N2CCCCC2)cc1)N1CCOCC1 | 1.2 | -1.3 | 0.6 | 3.0 | -1.4 | i | 6.6 | -1.0 | -4.7 | 0.1
CC(=O)Nc1cc(-c2ccc(Cl)cc2)nn1-c1ccccc1 | 7.0 | -23.6 | . | . | . | . | 6.2 | . | ? | -0.1
Cc1[nH]c2ccccc2c1/C=C(\C#N)S(=O)(=O)c1ccccc1 | 9.7 | -11.1 | . | . | . | . | 97.2* | . | 19.3 | -3.2
CN(C)CC#CCCCCCCC#CCN(C)C | 7.1 | -13.6 | . | . | . | . | -15.1 | . | . | 7.6
O=C1CC(c2c(F)cccc2Cl)C(n2cncn2)C(O)=C1C1NCCc2ccccc21 (stereo not drawn) | -4.5 | 3.7 | 11.9 | -1.9 | 1.5 | i | 4.1 | -0.7 | -19.2 | 0.8
COc1ccc(CCn2nnnc2C(C(C)C)N2CCC(C(N)=O)CC2)cc1OC (stereo not drawn) | 0.7 | 2.7 | . | . | . | . | 4.3 | . | 4.2 | 2.8
Nn1c(SCc2cccc(C(F)(F)F)c2)nnc1-c1ccco1 | 5.6 | -1.8 | . | . | . | . | -20.9 | . | -4.0 | 5.0
COc1ccc(Cl)cc1N(CC(=O)N1CCCC1)S(=O)(=O)c1ccc(C)cc1 | 0.2 | -7.3 | -7.7 | -17.6 | 6.8 | i | -1.9 | 1.4 | -1.1 | 3.3
CCCc1nc(SCC(=O)N2CCC(C)CC2)c2c(=O)n(C)c(=O)n(C)c2n1 | 22.8 | 0.1 | -5.4 | -5.2 | 11.1 | i | 6.5 | -47.4 | -6.1 | -1.4
CCCCN(C(=O)CSCC(=O)Nc1ccc(OC)cc1)c1c(N)n(CCC)c(=O)[nH]c1=O | -4.1 | -10.3 | 9.7 | 18.2 | 1.4 | i | 2.8 | -0.9 | -2.6 | .
SMILES | T cruzi repl | Beta apoptosis | Ecoli rRNA inh | Ecoli rRNA inh OD600 | Ecoli rRNA inh RFP | FGF22 binding | ALR inh | AF4-AF9 inh | Calb FLC | RanGTP-Imp inh
O=C(CSc1nccn1Cc1ccccc1)Nc1nccs1 | -13.0 | 1.3 | -1.3 | -1.9 | -2.2 | . | ? | . | -10.8 | 0.4
COc1ccc(C(=O)COc2nc(C)cc(C)c2C#N)cc1 | 18.1 | 0.6 | . | . | . | . | -13.4 | . | 30.9 | 4.4
NC(=O)C1CCN(CC(=O)Nc2cccc(C(=O)Nc3cccc(C(F)(F)F)c3)c2)CC1 | -23.9 | -3.8 | -25.0 | -23.8 | -8.9 | i | . | 3.4 | -16.5 | 6.6
COc1ccc(CC(=O)Nc2cccc3ccccc23)cc1OC | 5.7 | 2.7 | 6.0 | 8.1 | -1.0 | i | . | -1.7 | -3.5 | -0.1
COc1ccc(NC(=S)Nc2ccc3nccnc3c2)cc1 | -12.6 | -13.1 | . | . | . | . | -42.0 | . | 16.4 | 4.9
COc1ccc(N2CCN(c3ncnc4scc(-c5ccc(C)cc5)c34)CC2)cc1 | 57.8* | 21.1 | 2.2 | 5.3 | 0.2 | i | 20.3 | 13.0 | -6.4 | 1.6
O=C1N(CCCCN2C(=O)C3(OCCO3)c3ccccc32)c2ccccc2C12OCCO2 | 1.9 | -2.0 | . | . | . | . | -4.3 | . | 0.4 | -1.6
O=S(=O)(/C=C/c1ccccc1)n1cnc2ccccc21 | -19.6 | -1.7 | . | . | . | . | -20.8 | . | -4.6 | 3.2
CCCc1[nH]n(-c2nc3ccccc3s2)c(=O)c1C=NCCCOC | 11.1 | -5.7 | -3.8 | -4.8 | 6.3 | i | -10.1 | -4.0 | -2.6 | -2.0
O=C(O)CCN1C(=O)C2C3c4ccccc4C(c4ccccc43)C2C1=O (stereo not drawn) | 3.3 | -0.4 | -12.4 | -0.4 | 1.9 | i | -21.8 | 4.2 | -2.2 | 1.2
O=C(O)c1cc(NS(=O)(=O)c2ccc(N3CCCCC3)c([N+](=O)[O-])c2)cc(C(=O)O)c1 | 0.4 | -4.6 | . | . | . | . | 1.8 | . | -15.5 | -1.1
COc1ccc(N2CCN(C(=O)c3cn(C)c(=O)c4c3c3ccccc3n4C)CC2)cc1 | -1.4 | -29.4 | -7.0 | -9.9 | 18.5 | i | 51.4 | 21.1 | -3.5 | -0.2
COc1cc(NC(=O)c2ccc3c(SCC(=O)O)c4c(nc3c2)CCC4)cc(OC)c1OC | -5.0 | -7.2 | 2.2 | 3.6 | -0.1 | i | -4.7 | -7.2 | 4.7 | 4.9
Cc1cc(C)c(C)c(S(=O)(=O)N2CCC(C(=O)NCc3ccco3)CC2)c1C | . | 0.2 | -11.5 | -46.0 | 5.2 | i | 7.4 | -3.8 | . | .
C=CCNS(=O)(=O)c1cc(S(=O)(=O)NCC=C)c(OC)cc1OC | -18.5 | -6.8 | 20.9 | 9.7 | 1.8 | i | 2.8 | -0.3 | 26.8 | 3.2
CC(=O)Nc1ccc(C(=O)OCC(=O)Nc2ccc(N3CCOCC3)cc2)cc1 | -14.2 | -9.0 | 15.8 | 4.8 | -10.7 | i | . | -0.7 | 2.8 | -0.6
O=C(N=NC(=O)c1ccc2c(O)n(C3CCCCC3)c(O)c2c1)c1cccnc1 | 0.1 | 1.4 | . | . | . | . | 1.0 | . | -1.5 | -3.3
O=C(O)CSc1nc2ccccc2[nH]1 | -20.0 | -2.3 | . | . | . | . | -4.8 | . | -10.3 | 5.4
Cc1cc(NC(=O)CS(=O)(=O)c2ccc(Cl)cc2)no1 | -8.0 | -2.9 | -0.3 | -10.6 | 5.6 | i | -3.8 | -1.5 | 6.8 | 5.4
CCOC(=O)CSc1nc2ccccc2c(=O)n1CC1CCCC1 | 1.8 | 1.1 | . | . | . | . | -3.9 | . | -37.0 | ?
O=C(NN=C1CCCC1)c1ccc(O)cc1 | -17.4 | . | 16.0 | 14.0 | 9.8 | i | 26.4 | -0.9 | 30.8 | -3.5
COc1cccc(-n2c(=S)sc3c(=O)n(-c4ccccc4OC)c(=S)[nH]c32)c1 | 10.8 | 1.0 | -3.3 | -1.8 | -0.7 | i | 2.0 | 2.4 | 40.0 | 0.2
O=C(O)c1nccnc1C(=O)NCCc1c[nH]c2ccccc12 | -11.4 | -1.6 | 1.2 | 0.2 | 0.0 | i | 9.5 | 1.2 | -3.9 | 4.8
COC(=O)c1ccc(CNC(=O)[C@@H]2CCCN2S(=O)(=O)c2ccccc2F)cc1 | . | -3.3 | 9.0 | 18.6 | 0.7 | i | -16.9 | -0.8 | . | .
Cc1c(NC(=O)c2cc(-c3cccc(Cl)c3)on2)c(=O)n(-c2ccccc2)n1C | 4.9 | -0.5 | -6.5 | -3.3 | 1.4 | i | . | -1.4 | 14.8 | -0.4
COc1ccc(S(=O)(=O)N2CCC(O)(c3ccc4c(c3)OCO4)CC2)cc1 | 7.6 | -0.3 | -16.8 | -13.2 | 0.8 | i | -9.0 | -2.2 | -9.5 | -1.1
Cc1ccc(C(=O)N/C(=C/c2cccc([N+](=O)[O-])c2)C(=O)NC(C)C)cc1 | 13.7 | -8.1 | . | . | . | i | 0.2 | 0.8 | 0.7 | 1.9
CCOC(=O)c1cn(CC(=O)Nc2ccccc2C(=O)OCC)nn1 | -16.1 | -6.1 | . | . | . | . | . | . | 20.7 | 5.1
CN1CCN(CC(=O)N2c3ccc(S(=O)(=O)NCCNC(=O)OC(C)(C)C)cc3C(=O)Nc3cccnc32)CC1 | -9.2 | -6.1 | 3.7 | -0.7 | 3.3 | i | -7.4 | -2.1 | 1.3 | 2.2
c1ccc(-c2nc(-c3cccnc3)n[nH]2)cc1 | -10.6 | -4.6 | . | . | . | . | 4.2 | . | 0.3 | -4.9

Assay outcomes from PubChem.
